Vaccinia Venus: qHTS for Stage-Specific Inhibitors of Vaccinia Orthopoxvirus: Venus Reporter Primary qHTS; Vaccinia virus Venus reporter expression, fluorescence; Potency, µM (doses to about 36.5 µM), for inactives: at the top dose activity change, negative = inhibition, usual class: inhibitors; actives 0.46% (n = 330,000); active means well fitted inhibition curve with a large enough effect; inconclusive means small, poorly fitted or top-dose-only effect; inactive means no such curve, though single readings can be large or run the other way; tested in A549 cells; also: nearly all actives have a fitted effect of over 30% in size; inactives centre near -10
VACV mCherry inh: qHTS for Stage-Specific Inhibitors of Vaccinia Orthopoxvirus: mCherry Reporter Primary qHTS; actives 0.63% (n = 310,000); Vaccinia virus mCherry reporter infection, fluorescence; about a quarter of the inactives have no number; Potency, µM (doses to about 36.5 µM), for inactives: top-dose activity change, negative = inhibition, most hits filed as inhibitors; AID 720579, 2013; active = well fitted inhibition curve with a large enough effect; inconclusive = small, poorly fitted or top-dose-only effect; inactive = no such curve, though single readings can be large or run the other way; tested in A549 cells; also: nearly all actives have a fitted effect of over 35% in size; inactives centre near -10
Active calls of the source: *; & = joins results of further samples; [ ] = another dose, or the depositor's remark. % is scaled to controls: 0 for no effect and ±100 for the full control effect; potency is read from the fitted curve at half-maximal effect.

For Cc1ccc2[nH]c(CN3CCC(CO)(CC4CCCCO4)CC3)c(C)c2c1 (centres undefined) the results were Vaccinia Venus 7.2% and VACV mCherry inh inconclusive.
Screening Cc1ccsc1C(=O)N1CCC1(C)C(=O)NCC(C)(C)C (centres undefined) returned Vaccinia Venus 0.1% and VACV mCherry inh 11.8%.
`COc1ccc(C(C(=O)NC(C)(C)C)N(C(=O)CCC(=O)Nc2cc(C)on2)c2c(C)cccc2C)cc1` (centres undefined) gave Vaccinia Venus -6.4% and VACV mCherry inh -3.5%.
COc1ccc(C(=O)O/N=C/c2ccc(S(=O)c3ccc(Cl)cc3)nc2)cc1 (centres undefined) was read as Vaccinia Venus 0.7%.
For CCOc1ccc(Nc2nc(C)c(NC(=O)c3cccc(F)c3)c(Nc3ccc(OCC)cc3)n2)cc1 the results were Vaccinia Venus -10.1% and VACV mCherry inh inactive.
`CC(=O)C1C(=O)C=C(c2ccco2)CC1c1ccccc1` (centres undefined) gave Vaccinia Venus 12.6% and VACV mCherry inh -7.0%.
Screening CC[C@H](C)[C@@H](NC(=O)O[C@@H]1C(=O)c2cc(OC)ccc2O[C@H]1c1ccc(OC)c(Br)c1)C(=O)OC returned Vaccinia Venus -17.3% and VACV mCherry inh -19.8%.
Cc1nc2cc(NC(=O)CS(=O)(=O)c3ccc(F)cc3)ccc2s1 was read as Vaccinia Venus -16.0% and VACV mCherry inh inconclusive.
`O=C(Nc1ccccc1N1CCOCC1)c1cc(F)cc(F)c1` gave Vaccinia Venus -8.1% and VACV mCherry inh inactive.
O=C(NCc1ccncc1)C(F)(F)C(F)(F)C(=O)NCc1ccncc1 was read as Vaccinia Venus -15.1% and VACV mCherry inh -3.9%.
COc1ccc(-n2c(O)c(/C=N/NS(=O)(=O)c3ccc(C)cc3)c3ccccc3c2=O)cc1OC was read as Vaccinia Venus inactive and VACV mCherry inh 5.3%.
O=C(Nc1ccc(Cl)cc1)c1ccc2snnc2c1 was read as Vaccinia Venus -1.9% and VACV mCherry inh inactive.
COc1ccccc1N1CCN(CCCNC(=O)Nc2ccccc2C)CC1 was read as Vaccinia Venus -17.4%.
COCCSc1ccccc1C(=O)Nc1cccnc1 was read as Vaccinia Venus 9.4% and VACV mCherry inh -14.4%.
`CCN(CC(=O)Nc1ccc(NC(C)=O)cc1)C(=O)c1cn(-c2ccccc2)nc1-c1cccs1` gave Vaccinia Venus -10.7% and VACV mCherry inh -0.6%.
`COC(=O)c1sc(N)c(C(=O)OC)c1Cn1ncc(Cl)c(Cl)c1=O` gave Vaccinia Venus -8.8% and VACV mCherry inh inconclusive.
Screening Cc1ccc(C2=NS(=O)(=O)N(C)C(C(=O)Nc3ccc(F)cc3F)=C2)cc1 returned Vaccinia Venus -0.5% and VACV mCherry inh inactive.
`COc1cc(/C=N/NC(=O)c2c(-c3c(Cl)cccc3Cl)noc2C)ccc1OCC(N)=O` gave Vaccinia Venus -16.8% and VACV mCherry inh inconclusive.
`CCC(=O)Nc1cccc(NC(=O)c2ccccc2Br)c1` gave Vaccinia Venus -7.7% and VACV mCherry inh -12.9%.
For CC(C)c1ccc(OCC(O)CN2CCCC2)cc1 (centres undefined) the results were Vaccinia Venus -3.1% and VACV mCherry inh -0.3%.
`O=C(/C=C/c1ccccc1Cl)N1CCC(c2nc3ccccc3o2)CC1` gave Vaccinia Venus -8.4% and VACV mCherry inh -5.0%.
For O=C(c1cccc(F)c1)N1CCCC(C(=O)N2CCCC2)C1 (centres undefined) the results were Vaccinia Venus -8.2% and VACV mCherry inh -7.2%.
For Cc1cc(=O)[nH]c(SCC(=O)NCCC2=CCCCC2)n1 the results were Vaccinia Venus 2.7% and VACV mCherry inh inactive.
Screening Cc1ccc(NC(=O)CN(C)Cc2cc(=O)n3ccsc3n2)cc1 returned Vaccinia Venus -0.9% and VACV mCherry inh -4.0%.
Screening CN1CCN(C(=S)c2ccc(Br)cc2)CC1 returned Vaccinia Venus 5.3% and VACV mCherry inh -1.5%.
Screening COc1ccc(C(=O)Nn2c(SCC(=O)NCc3ccco3)nc3ccccc3c2=O)cc1 returned Vaccinia Venus -5.9% and VACV mCherry inh -8.2%.
Screening COc1cccc(/C=N/NC(=S)Nc2cccnc2)c1 returned Vaccinia Venus -14.0% and VACV mCherry inh -5.3%.
Cc1cc(=O)[nH]c(SCC(=O)N2CC3(C)CC2CC(C)(C)C3)n1 (centres undefined) was read as Vaccinia Venus -14.3% and VACV mCherry inh inactive.
For O=C(CCCN1C(=O)/C(=C\c2cccs2)SC1=S)Nc1ccc(C(=O)O)cc1 the results were Vaccinia Venus -12.7% and VACV mCherry inh -18.7%.
Screening C(=N\N(c1ccccc1)c1ccccc1)/c1ccc2c(c1)OCO2 returned Vaccinia Venus 5.6% and VACV mCherry inh -12.2%.
N#CCSc1nc(-c2ccccc2)cs1 was read as Vaccinia Venus inconclusive.
`CS(=O)(=O)c1nc([N+](=O)[O-])nn1CCCc1ccccc1` gave Vaccinia Venus -3.8% and VACV mCherry inh -12.7%.
`Cc1cc(C)cc(NC(=O)CSc2nc(=O)n(CCN3CCOCC3)c3c2CCC3)c1` gave Vaccinia Venus -7.4%[7.34 µM] and VACV mCherry inh -7.3%[7.34 µM].
CC(=O)C[C@@H]1OC2CCCCC2N1S(=O)(=O)c1ccc(C)cc1 (some centres undefined) was read as Vaccinia Venus inconclusive and VACV mCherry inh inconclusive.
For O=C(c1ccc(CS(=O)c2ccc(Br)cc2)o1)N1CCN(C2CCCCC2)CC1 (centres undefined) the results were Vaccinia Venus -12.5% and VACV mCherry inh -15.1%.
For COc1ccc(OC)c2c(N3CCN(C)CC3)cc(C(F)(F)F)nc12 the results were Vaccinia Venus -7.5% and VACV mCherry inh -5.1%.
`Cc1ccc(N2C(=O)N(CC(=O)Nc3ccccc3C)C(=O)C2C)cc1` (centres undefined) gave Vaccinia Venus -24.0% and VACV mCherry inh -5.7%.
Screening COc1ccc(OC)c2sc(N3CCN(C(=O)c4ccc5ncsc5c4)CC3)nc12 returned Vaccinia Venus -1.6% and VACV mCherry inh -6.6%.
`COC(=O)N1C(=O)[C@](CC(C)C)(c2ccccc2)N1C(=O)OC` gave Vaccinia Venus inconclusive and VACV mCherry inh -28.4%.
O=C(CCS(=O)(=O)c1ccc(Br)cc1)Nc1ccc(Cl)c(C(F)(F)F)c1 was read as Vaccinia Venus inconclusive and VACV mCherry inh 11.2µM*.

Entries above with a furan ring, fused or not (three):
`CC(=O)C1C(=O)C=C(c2ccco2)CC1c1ccccc1` (centres undefined) gave Vaccinia Venus 12.6% and VACV mCherry inh -7.0%.
Screening COc1ccc(C(=O)Nn2c(SCC(=O)NCc3ccco3)nc3ccccc3c2=O)cc1 returned Vaccinia Venus -5.9% and VACV mCherry inh -8.2%.
For O=C(c1ccc(CS(=O)c2ccc(Br)cc2)o1)N1CCN(C2CCCCC2)CC1 (centres undefined) the results were Vaccinia Venus -12.5% and VACV mCherry inh -15.1%.

The listing picks up, starting 2 compounds before the break.
`COC(=O)N1C(=O)[C@](CC(C)C)(c2ccccc2)N1C(=O)OC` gave Vaccinia Venus inconclusive and VACV mCherry inh -28.4%.
O=C(CCS(=O)(=O)c1ccc(Br)cc1)Nc1ccc(Cl)c(C(F)(F)F)c1 was read as Vaccinia Venus inconclusive and VACV mCherry inh 11.2µM*.
For COc1ccccc1N1CCN(C(=O)COc2ccc(S(=O)(=O)NC(C)C)cc2)CC1 the results were Vaccinia Venus -12.8% and VACV mCherry inh inactive.
Screening Cc1cc(F)ccc1NCC(=O)Nc1ccc(Br)cc1C returned Vaccinia Venus -18.6% and VACV mCherry inh -5.3%.
`O=C(C1CCCO1)N1CCN(S(=O)(=O)c2cc(C(F)(F)F)ccc2Cl)CC1` (centres undefined) gave Vaccinia Venus -15.3% and VACV mCherry inh -21.8%.
For Cc1nn(CC(=O)NCc2ccccc2Cl)c(C)c1[N+](=O)[O-] the results were Vaccinia Venus -19.3% and VACV mCherry inh -17.8%.
`Cc1c(NC(=O)c2cc(-c3ccc(Cl)c(Cl)c3)on2)c(=O)n(-c2ccccc2)n1C` gave Vaccinia Venus 0.2%&3.8% and VACV mCherry inh -23.6%&-15.1%.
Cc1cccc(C(=O)Nc2scc(CC(C)C)c2C(=O)O)c1 was read as Vaccinia Venus -10.1% and VACV mCherry inh -15.7%.
Screening CCOc1ccc(C2C(C(=O)NC)=C(C)Nc3nc4ccccc4n32)cc1OC (centres undefined) returned Vaccinia Venus -16.6% and VACV mCherry inh inactive.
Screening COc1cc(/C=N/n2c(=S)[nH]nc(C)c2=O)cc([N+](=O)[O-])c1O returned Vaccinia Venus -7.2% and VACV mCherry inh -1.7%.
For CC(c1ccc(F)cc1)n1cc(C(=O)NCc2ccc3c(c2)OCO3)nn1 (centres undefined) the results were Vaccinia Venus -8.7% and VACV mCherry inh -0.3%.
CCc1ccc(N=C2N=C(N)c3ccccc32)cc1 was read as Vaccinia Venus -8.6% and VACV mCherry inh inactive.
Screening COc1ccc(OC)c(N(C)S(=O)(=O)c2ccc3c(c2)NC(=O)CC(=O)N3)c1 returned Vaccinia Venus -4.3% and VACV mCherry inh -5.1%.
Screening NC(=O)c1cc(S(=O)(=O)N2CCCC2)ccc1OCc1ccc(F)cc1 returned Vaccinia Venus -10.6% and VACV mCherry inh -14.5%.
`CC(C)CN(C(=O)c1ccc(Br)o1)C1CCS(=O)(=O)C1` (centres undefined) gave Vaccinia Venus -14.8% and VACV mCherry inh inactive.
Screening N#Cc1c(Cl)nc2c(c1C#N)CCCC2 returned Vaccinia Venus -19.8% and VACV mCherry inh -7.1%.
Screening CC(C)(C)OC(=O)[C@H](Cc1ccccc1)NC(=O)c1nc[nH]c1C(=O)NCC(=O)OCc1ccccc1 returned Vaccinia Venus -12.3% and VACV mCherry inh inactive.
Screening CC(=O)N1CCC(N(CCN2CCOCC2)C(=S)Nc2ccccc2C)CC1 returned Vaccinia Venus -8.1% and VACV mCherry inh inactive.
N#C/C(C(N)=O)=C1/SC=C(c2ccccc2)N1c1ccccc1 was read as Vaccinia Venus -17.3% and VACV mCherry inh inactive.
`OC(c1cc(Cl)cc(Cl)c1)c1ncc(-c2cccc(F)c2)[nH]1` (centres undefined) gave Vaccinia Venus -19.5% and VACV mCherry inh 5.6%.
Screening Cc1onc(-c2ccccc2Cl)c1C(=O)N1CCCCC1C(=O)O (centres undefined) returned Vaccinia Venus -2.9% and VACV mCherry inh 27.6%.
Cc1ccc2c(C(=O)CN3CCSCC3)c(C)[nH]c2c1 was read as Vaccinia Venus -19.0% and VACV mCherry inh inactive.
Cc1nn(C)cc1/C=N/NC(=S)Nc1ccc(Cl)cc1Cl was read as Vaccinia Venus -13.1% and VACV mCherry inh -4.2%.
`COc1cc(C(=O)NCc2nc(C)cs2)ccc1OC1CCN(C(C)=O)CC1` gave Vaccinia Venus -7.8% and VACV mCherry inh inactive.
`O=C(NCc1cccc(C(F)(F)F)c1)c1cccc(Cl)c1Cl` gave Vaccinia Venus -5.4% and VACV mCherry inh inactive.
COc1ccccc1-n1ccnc(SCC(=O)NCc2ccccc2Cl)c1=O was read as Vaccinia Venus -14.4% and VACV mCherry inh -1.4%.
`Nc1ccccc1C(=O)Nc1nccs1` gave Vaccinia Venus -22.8% and VACV mCherry inh -21.6%.
O=C(Nc1cc(S(=O)(=O)N2CCOCC2)ccc1N1CCCC1)c1ccc2c(c1)S(=O)(=O)c1ccccc1C2=O was read as Vaccinia Venus 7.3% and VACV mCherry inh -9.1%.
For O=[N+]([O-])c1ccccc1/C=C/C=N/Nc1ccc(S(=O)(=O)Nc2ccc(Cl)cc2)cc1[N+](=O)[O-] the results were Vaccinia Venus -26.6% and VACV mCherry inh -19.8%.
`CCN1CCN(C(=O)c2cc3sccc3n2CC(=O)c2ccccc2)CC1` gave Vaccinia Venus -8.1% and VACV mCherry inh inactive.
CC(C)CCNC(=O)CO/N=C/c1ccccc1OC(F)F was read as Vaccinia Venus -6.2% and VACV mCherry inh -13.0%.
Screening Clc1c(OCCCn2ccnc2)ccc2ccccc12 returned Vaccinia Venus -19.5% and VACV mCherry inh inconclusive.
`CCN(CC)c1ccc([N+](=O)[O-])cc1/C=N/NC(=O)CC#N` gave Vaccinia Venus -7.3% and VACV mCherry inh -20.8%.
O=C(Nc1ccc(C(=O)N2CCCCC2)cc1)[C@H]1O[C@@H](n2ccc(=O)[nH]c2=O)[C@H](O)[C@@H]1O was read as Vaccinia Venus 1.4% and VACV mCherry inh 8.0%.
CCOC(=O)N(O)c1ccc(C=Cc2ccccc2)cc1 was read as Vaccinia Venus inconclusive and VACV mCherry inh inconclusive.
Screening Cc1ccc(CNC(=O)CS(=O)(=O)c2cccc3nsnc23)cc1 returned Vaccinia Venus -20.9% and VACV mCherry inh -12.8%.
Cc1ccc2c(c1)c1c(c(=O)n(-c3cccc(Cl)c3)c(=O)n1CC(N)=O)n2C was read as Vaccinia Venus -2.3% and VACV mCherry inh 3.0%.
Screening COc1ccccc1N1CCN(CCCNC(=O)c2nnc(Cc3c(F)cccc3Cl)o2)CC1 returned Vaccinia Venus -13.1% and VACV mCherry inh -21.3%.
CCN(CC)C(=O)CSc1nnc(SC(C)C(=O)NC2CC2)s1 (centres undefined) was read as Vaccinia Venus -7.7% and VACV mCherry inh -16.4%.
`Cc1ccc(-c2ccc(=O)n(CC(=O)NCCCN3CCCCC3)n2)cc1` gave Vaccinia Venus -10.8% and VACV mCherry inh -19.4%.
Screening Cc1ccc2c(=O)cc(C(=O)Nc3ccc(S(=O)(=O)Nc4ncccn4)cc3)oc2c1C returned Vaccinia Venus 7.5% and VACV mCherry inh 3.0%.
Screening COc1ccc(CCNC(=O)CN(C)S(=O)(=O)c2cccs2)cc1 returned Vaccinia Venus -11.3% and VACV mCherry inh inactive.
